Compound activity as filed in PubChem.
TsaE inh: inhibitors of E. coli YjeE (TsaE). P0AF67. purified YjeE, fluorescence polarisation of a bound ADP probe. Potency, µM. 0.05% of 71,000 active. AID 605; active = well fitted falling curve; inconclusive = weaker or top-dose-only fall, or a rising curve; inactive = flat or poorly fitted curve;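 note: top concentration of the series not given in the record; excess ADP was the control for the full effect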
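Fluorescence polarization of a BODIPY Texas Red–ADP probe (2 uM) bound to purified YjeE (10 uM) was read after 15 min room-temperature incubation with compounds. Loss of polarization marks inhibitors; ADP serves as titrated control.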
Bst PK mod: alters activity of Bacillus stearothermophilus pyruvate kinase; partly purified Bacillus stearothermophilus pyruvate kinase, luminescence ATP production; ribose 5-phosphate activator present at AC10; Potency, µM; 1.2% of 51,000 active; in the data active means potency below about 11 µM; inconclusive means mostly about 12 µM to 25 µM; inactive means weaker than that;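 the screen sought inhibitors and activators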;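 note: potency is the fitted concentration of half-maximal effect; scaled between full activation by ribose 5 phosphate and full inhibition by luteolin; about four in five hits inhibit and the cells do not say which; series up to 57 µM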
Starred values were filed as active, the others as inactive; i = inactive; ? = inconclusive; / = not tested or not shown. A portion of the library. The share of hits here may be higher or lower than overall.

SMILES	TsaE inh	Bst PK mod
FC(F)(F)c1ccccc1-c1cc(NCc2cccs2)ncn1	i	/
Cc1c(Cl)c(C(F)(F)F)nn1CC(=O)N1CCSCC1	/	>26
Cc1c(C(=O)OC(C)CCN(C)C)oc2ccccc12 (centres undefined)	i	>57
c1ccc(CSc2nnc(NC3=NCCCCC3)s2)cc1	i	>57
CCCC(=O)Nc1ccccc1N1CCN(C(=O)c2ccccc2)CC1	i	>57
COc1ccc2[nH]c(=O)c(CN(C(=O)COc3ccccc3)C(C)C)cc2c1	i	>57
C(#Cc1ccccc1)CN1CCN(c2ccccn2)CC1	i	>57
Cc1ccnc(NS(=O)(=O)c2ccc(NC(=O)Cc3cccs3)cc2)n1	i	/
Cc1nc(NCC2CCCO2)c2nnn(Cc3ccccc3)c2n1 (centres undefined)	i	>57
CN(C(=O)c1ccccn1)c1nnc(-c2ccncc2)s1	i	>57
CN(C)c1nc(SCCOC(=O)Nc2ccccc2)nc(N(C)C)n1	i	>57
O=C(NCc1cccs1)c1csc2c1CCCCC2	i	>57
Cc1ccccc1NC(=O)c1nc[nH]c1C(=O)NCc1ccccc1	i	>57
NS(=O)(=O)c1ccc(NC(=O)Nc2ccccc2F)cc1	i	/
CS(=O)(=O)N1CCc2cc(S(=O)(=O)N3CCN(Cc4ccc5c(c4)OCO5)CC3)ccc21	i	>57
Cc1ccc(C(=O)Nc2ncc3c(n2)CC(c2ccco2)CC3=O)cc1 (centres undefined)	i	>57
COc1ccccc1N(CC(=O)Nc1ccccc1C(=O)NC(C)C)S(C)(=O)=O	i	/
CCOC(=O)c1ccccc1NC(=O)CSc1nccn1C	i	>57
Cc1cc(Nc2ccccc2F)n2ncnc2n1	i	/
O=C(CSc1ncnc2ccccc12)NCc1ccco1	i	>57
Cc1onc(-c2c(Cl)cccc2Cl)c1C(=O)N1CCc2ccccc21	i	/
CCCCCCCCCCCCCCCCOC[C@@H](COCC(F)(F)F)OP(=O)(O)OCO	i	/
c1ccc(-c2cnc(-c3cccnc3)o2)cc1	i	/
O=C1C2CCC(C(O)C2)N1Cc1ccccc1 (centres undefined)	i	>57
COc1ccc(NC(=O)c2ccco2)cc1NC(=O)c1cccnc1	i	>57
N#Cc1cc2c(=O)n3ccccc3nc2n(CCCn2ccnc2)c1=N	i	>57
Cn1cccc1C(=O)N1CCC2(CCCN(c3ccc(-c4ccccc4)cc3)C2)CC1	i	/
CC(C(=O)N(C1CC1)C1(C(=O)Nc2ccccc2)CCCC1)N1C(=O)c2ccccc2C1=O (centres undefined)	i	>57
COc1ccc(Nc2oc(COc3cccc(C)c3)nc2C#N)cc1	i	/
COC(=O)CN(c1ccccc1OC)S(=O)(=O)c1ccccc1	i	>57
CC(C)CNC(=O)c1cccc(NC(=O)C2CCCO2)c1 (centres undefined)	i	>57
COc1ccc(Nc2cc(C(=O)NCCCN3CCN(C)CC3)c3ccccc3n2)cc1OC	i	i
CCCCOC(=O)CSc1nc2c(cc1C#N)C(=O)CC(C)(C)C2	i	>57
COCc1c(C(=O)OCC(=O)N2c3ccccc3CC2C)oc2ccccc12 (centres undefined)	i	>57
CCc1ccccc1N1CCN(S(=O)(=O)c2ccc(F)c(C)c2)CC1	i	/
Cc1cc(/C(=N/O)C(C)(C)NO)ccc1Cl	i	>57
O=C(CN(c1ccc(F)cc1)S(=O)(=O)c1ccc2c(c1)OCCO2)N1CCOCC1	i	/
O=C(CSc1nc2c(c(=O)[nH]1)CCC2)Nc1cccc(Cl)c1	i	>57
O=C(NCCCN1CCN(c2cccc(Cl)c2)CC1)c1nc(-c2ccncc2)no1	i	>57
CCOc1cccc(N2C(=O)CC(N3CCC(C(N)=O)(N4CCCCC4)CC3)C2=O)c1 (centres undefined)	i	>57
CC(C)(C)NC(=O)c1ccccc1-c1nc(-c2ccccc2Cl)no1	i	/
CC(C)NC(=O)Cn1nnc(-c2cccc(NC(=O)c3ccccc3F)c2)n1	i	>57
CCOC(=O)C1CCN(c2c(N3CCCCCC3)c(=O)c2=O)CC1	i	/
Cc1ccc(N2CCN(S(=O)(=O)c3ccc(F)c(C)c3)CC2)c(C)c1	i	11*
CSc1snc(SCC(N)=O)c1C#N	i	>57

Full records, quoted from the list:
`O=C(CN(c1ccc(F)cc1)S(=O)(=O)c1ccc2c(c1)OCCO2)N1CCOCC1` in the list: TsaE inh: i; Bst PK mod: /
`Cc1ccc(N2CCN(S(=O)(=O)c3ccc(F)c(C)c3)CC2)c(C)c1` in the list: TsaE inh: i; Bst PK mod: 11*
`CSc1snc(SCC(N)=O)c1C#N` in the list: TsaE inh: i; Bst PK mod: >57

(more compounds)
SMILES	TsaE inh	Bst PK mod
CCCC(=O)Nc1cc(OC)c(OC)cc1C(=O)O	i	>57
CC1(C)Cc2nc(NCCCO)c(C#N)cc2CO1	/	>26
Cc1ccc(-n2c(C)cc(C(=O)COC(=O)c3c(C)noc3C)c2C)cc1	i	i
O=C(O)[C@H]([C@H]1NCCS1)N1Cc2ccccc2C1	i	/
COc1cccc2cc(-c3cn4cccc(C)c4n3)c(=O)oc12	i	>57
O=C(O)CCc1ccc(-c2cccs2)n1CC1CCCO1 (centres undefined)	i	>57
CCCCOc1ccc(C(=O)OC2CC(C)N(C)CC2C)cc1 (centres undefined)	/	>26
CSc1c[n+]2c(n1C)CCC2	i	>57
O=c1[nH]c(SCc2ccc(F)cc2)nc2c1cnn2-c1ccc(F)cc1	i	/
Cc1nc(NC(=O)c2ccccc2)sc1-c1csc(NCc2ccco2)n1	i	/
CCOC(=O)C1=C(C)NC(=O)NC1c1cc(C)sc1C (centres undefined)	i	>57
CN(C)C(=O)Cn1c(SCC(=O)N2CCCc3ccccc32)nc2ccccc21	i	>57
O=C1CN(C(=O)COC(=O)Cc2ccsc2)c2ccccc2N1	i	>57
Cc1ccsc1-c1nc(CSCC(=O)NCc2ccc3c(c2)OCO3)c(C)o1	i	/
CS(=O)(=O)c1ccc2nc(NC(=O)C3COc4ccccc4O3)sc2c1 (centres undefined)	i	/
O=C(NCCNC(=O)C1CC2CCC1C2)C1CC2CCC1C2 (centres undefined)	i	>57
COc1cc2ccccc2cc1C(=O)Nc1ccc(N2CCN(C)CC2)cc1	i	11*
O=C(Cc1ccccc1)Nc1c2c(nn1-c1cccc(Cl)c1)CS(=O)(=O)C2	i	>57
N#Cc1ccc(CN2CC3(CCN(C(=O)c4ccco4)CC3)C2)cc1	i	/
c1ccc(-c2ccc(-c3ccc(C4=NCCN4)cc3)o2)cc1	i	/
O=S(=O)(c1cccc(-c2nnc(-c3ccc(Br)cc3)o2)c1)N1CCCCCC1	i	/
O=c1c(CCc2ccccc2)nc2cnc(N3CCNCC3)nc2n1Cc1ccc(F)cc1	?	/
Cc1cc(C)n(CC(=O)n2nc(C)cc2C)n1	/	>26
CN(C)c1nc(Nc2ccccc2)nc(Oc2ccc(=O)[nH]n2)n1	i	>57
Cc1sc2nc(SCC(=O)NCCOCCO)n(C)c(=O)c2c1C	i	/
COC(=O)CCCC[C@H]1SC[C@H]2NC(=O)N[C@]21O	i	>57
CCSc1nnc(NC(=O)NCC(F)(F)F)s1	/	>26
O=C(CP(=O)(CO)CO)c1ccc(Cl)cc1	i	>57
COC(=O)[C@H]1C[C@@H]1[C@H](NS(=O)(=O)c1ccccc1)c1ccccc1	i	/
CC1=C(C(=O)OC2CCCCC2)C(c2cccnc2)n2ncnc2N1 (centres undefined)	i	>57
CC12COC3(C(=O)N4CCN(c5ccccn5)CC4)CC1CCC32C (centres undefined)	i	>57
CN(C)S(=O)(=O)c1ccc(C(=O)Oc2ccccc2)cc1	i	>57
C=C(C)Cn1c(C2CC(=O)N(Cc3ccccc3)C2)nc2ccccc21 (centres undefined)	i	/
Nc1nc(Nc2ccccc2)nc2c1ncn2[C@@H]1O[C@@H](CO)[C@H](O)[C@@H]1O	i	/
CCc1c(C)sc(NC(=O)c2ccco2)c1C(=O)N1CCCCC1	i	>57
CCc1nnc(NC(=O)CSc2nnc(CSc3nc(C)cc(C)n3)n2CC)s1	i	>57
Cc1ccc(-c2nnn(CC(=O)NCC3COCCO3)n2)o1 (centres undefined)	i	>57
Cc1cc(C)c2ccc(C)[n+]([O-])c2c1O	i	>57
CCCCCCN1C(=O)C(O)=C(C(C)=O)C1c1ccc(Cl)cc1 (centres undefined)	i	/
CCCn1c(NCc2ccc(C)o2)nc2ccccc21	i	>57
O=C(c1ccccc1)c1ccc(CN2C(=O)c3ccccc3C2=O)o1	i	/
CCCn1cc(S(=O)(=O)CC(=O)N2CCc3ccccc32)c2ccccc21	i	>57
O=C(O)C1(NS(=O)(=O)c2ccc(F)c(Cl)c2)CCCCC1	i	>57
CN1CCN(C(=O)c2ccccc2NC(=O)Cc2ccccc2)CC1	i	/
C=CCn1c(SCC(=O)N2CCN(c3ccc(F)cc3)CC2)nnc1-c1ccco1	i	/
CCc1cc2c(NCCC(=O)O)nc(C)nc2s1	i	>11
CCOC(=O)C1CCCN(C(=O)Cn2cnc3c2c(=O)n(C)c(=O)n3C)C1 (centres undefined)	i	/
CC(=O)C1=C(O)C(=O)N(CCc2c[nH]c3ccccc23)C1c1ccco1 (centres undefined)	i	/
COc1ccccc1-c1nc(C#N)c(N2CCN(c3ccccc3)CC2)o1	i	/
O=S(=O)(Nc1ccc2c(c1)OCO2)c1cccs1	i	>57
COC(=O)CCC(=O)c1oc2ccc(Br)cc2c1N	i	/
COc1cccc(NS(=O)(=O)c2nc3nc(C)cc(C)n3n2)c1	i	/
Cc1c(N=Cc2ccco2)c(=O)n(-c2ccccc2)n1C	i	/
Cc1cc(C(=O)CC#N)c(C)n1-c1ccc(OC(F)F)cc1	i	>57
O=C(NCc1ccco1)c1cc(-c2ccccc2)c(N2CCOCC2)s1	i	>57
CN1C(=O)NC(c2ccccc2)C2=C1CN(Cc1ccco1)C2=O (centres undefined)	i	/
COC(=O)c1ccc(CSc2ncnc3c2oc2ccccc23)o1	i	>57
Cc1ccc(OC(C)c2nnc(N)s2)cc1Cl (centres undefined)	i	>57
Clc1ccc(Cc2noc(CN3CCN(c4ccccc4)CC3)n2)c(Cl)c1	i	>57
COc1ccccc1NC(=O)CNS(=O)(=O)c1ccccc1	i	>57

New compounds follow.
SMILES	TsaE inh	Bst PK mod
Cc1cc(C)nc(N(C#N)CC(=O)N2CCC(C(N)=O)CC2)n1	i	?
Cc1ccc(C(C)n2cc(C(=O)NCc3cccnc3)nn2)cc1 (centres undefined)	i	>57
c1ccc2cc3[nH]c(CN4CCOCC4)nc3cc2c1	i	>57
CCC(=O)N1CCc2cc(S(=O)(=O)Nc3ccc4c(c3)OCCO4)ccc21	i	>57
O=C1c2ccccc2C(=O)C12Cc1ccccc1N1CCN(c3ccccc3)CC12 (centres undefined)	i	>57
COCCNC(=O)c1c(N)sc2c1CCCC2	i	>57
CCC[C@@H]1O[C@@H]2C[C@@H]3[C@H]4CCC5=CC(=O)C=C[C@@]5(C)[C@H]4[C@H](O)C[C@@]3(C)[C@@]2(C(=O)CO)O1	i	/
COc1ccc(S(=O)(=O)Cc2ccccc2)cc1N	i	>57
CCOC(=O)c1cnc2c(-c3ccccc3)c(C)nn2c1N	i	>57
O=C(CSc1ncnc2c1cnn2-c1ccccc1Cl)N1CCN(C(=O)c2ccco2)CC1	i	>57
CCN1CCN(Cc2cc(=O)oc3cc(C)cc(C)c23)CC1	i	>57
N#Cc1cnn(Cc2ccccc2)c1N	i	>57
O=C(Cn1ncc2c(=O)oc3ccccc3c21)N1CCN(c2ccccn2)CC1	i	>57
CN(C)C(=O)N1CCC(C(=O)NCc2ccc(F)cc2Cl)CC1	i	>57
NCCCSC1=NCCCN1	i	>57
NCCCCCc1nnc(SCc2ccccc2Cl)o1	i	>57
CSc1nc(N)c2ncn([C@H]3O[C@H](COP(=O)(O)OP(=O)(O)O)[C@@H](O)[C@@H]3O)c2n1	50µM*	/
COc1ccc(CCC(=O)N2CC(C)OC(C)C2)cc1 (centres undefined)	i	>57
Cc1ccc(S(=O)(=O)OC2CCN(C)CC2)cc1	i	/
C/C(=N/Nc1ccc2ccccc2n1)c1ccccc1O	i	/
COc1ccc(-c2cn3ccsc3n2)cc1	/	4*
CC(=O)c1c(COC(=O)c2cccnc2)nc2ccccc2[n+]1[O-]	i	>57
C=CCSC1=C(C#N)C2(CCCCC2)C(C#N)C(=O)N1 (centres undefined)	i	/
CC(=O)c1cc(F)c(N2CCCC2)cc1C	i	/
CS(=O)(=O)N(CC(=O)N1CCCCCC1)c1cccc(Br)c1	i	/
CCC(=O)[C@@]1(C)[C@H](C)C[C@@H]2[C@@H]3CCC4=CC(=O)C=C[C@@]4(C)[C@H]3[C@H](O)C[C@]21C	i	/

6 entries from above, with the structure last.
TsaE inh | Bst PK mod | molecule
/ | 4* | COc1ccc(-c2cn3ccsc3n2)cc1
i | >57 | CC(=O)c1c(COC(=O)c2cccnc2)nc2ccccc2[n+]1[O-]
i | / | C=CCSC1=C(C#N)C2(CCCCC2)C(C#N)C(=O)N1 (centres undefined)
i | / | CC(=O)c1cc(F)c(N2CCCC2)cc1C
i | / | CS(=O)(=O)N(CC(=O)N1CCCCCC1)c1cccc(Br)c1
i | / | CCC(=O)[C@@]1(C)[C@H](C)C[C@@H]2[C@@H]3CCC4=CC(=O)C=C[C@@]4(C)[C@H]3[C@H](O)C[C@]21C
